PrP 5UTR inh: inhibition of PrP 5' UTR reporter expression; cell-based PrP 5' UTR mRNA reporter, plate reader; inhibition, % (concentration not given with the values); 340,000 compounds, 0.35% hits;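 active means every replicate at 50% or more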;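 further: 0 = median of the neutral control wells; tested in H4 reporter cells; numbers are from one replicate; inactives centre near -14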
RN4220 kill: growth inhibition of S. aureus RN4220, primary screen, OD600; 16 h; inhibition, % (concentration not given with the values); 330,000 compounds, 0.33% hits; AID 1259311, 2017;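 active means z-score of -3 or lower and OD600 up to 0.18 on both plates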;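 further: plate controls were untreated cells for no effect and reference antibiotic for full effect; stock transfer was 100 nL into about 80 µL; one replicate is shown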
BJeLR viability: MLPCN primary cell-based screen for lethality selective to Ras in HRASV12 cells | BJeLR (HRASV12) viability, CellTiter-Glo ATP luminescence, 48 h; reference of the scale not given here | inhibition, % (concentration not given with the values) | 300,000 compounds, 0.17% hits;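 active means replicate mean above 50%; inconclusive means above 50% but judged a plate artefact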;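 further: 50 nL library stock added to about 25 µL; numbers are from one replicate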
Sa ugtP lethal: growth inhibition of ugtP-null S. aureus, primary screen, RN4220 ugtP deletion, OD600. 16 h; some inactives read as strong as hits. growth inhibition, % (no concentration beside the values). 330,000 compounds, 0.54% hits;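 active means z-score under -3 and OD600 up to 0.15 on both plates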;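 further: plate controls were untreated wells for no effect and antibiotic for full effect; wells of about 80 µL received 100 nL stock; the first replicate is given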
Bead autofluor: flagged as autofluorescent in microsphere protease counterscreen. fluorescence intensity (no concentration beside the values). compound autofluorescence counterscreen, microsphere flow cytometry; stronger effect = higher value. AID 624483. 360,000 compounds, 3.1% hits;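 active means at least 3 SD above the mean of all compounds, about 16000 in these data; inconclusive means too few beads counted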;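 further: 100 nL of 1 mM stock went into each well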
Mtb hypoxia rep: PubChem AID 1159583; M. tuberculosis hypoxia-regulated fluorescent reporter, fluorescence; fluorescence inhibition, % (concentration not given with the values); 300,000 compounds, 0.1% hits;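 active means 35 to 45% if threefold the growth effect, above 45% if 1.5-fold the growth effect; inactive means the rest, general growth blockers included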;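 further: wells of about 50 µL received 100 nL stock; 0% = vehicle wells and 100% = reference inhibitor wells; whole bacteria with a GFP reporter of the hypoxia response; strong numbers were not always called active; many hits fall short of the cut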
Mtb hypoxia rep growth: second read-out of Mtb hypoxia rep, no call of its own (marks repeat the call); growth inhibition, %; measured here: M. tuberculosis growth (absorbance);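 0% = vehicle and 100% = reference antibiotic; read after six days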
Starred values were filed as active, the others as inactive; ? = inconclusive; nt = no result given; & = joins results of further samples.

SMILES	PrP 5UTR inh	RN4220 kill	BJeLR viability	Sa ugtP lethal	Bead autofluor	Mtb hypoxia rep	Mtb hypoxia rep growth
CC(C)(C)NC(=O)Cn1cc(C(=O)c2ccccc2F)c2ccccc21	-10.1	4.1	5.6	-4.0	2743	nt	nt
C/C=C/c1c(F)c(F)c(Oc2ccc(C(=O)O)cc2)c(F)c1F	-21.9	19.0	2.4	-3.9	21781*	14.2	-0.5
CN1CCN(c2ccc(NC(=O)COc3ccccc3Cl)cc2)CC1	-13.2	4.2	3.7	-1.2	3918	nt	nt
O=C(N1CCOCC1)N1CCN(S(=O)(=O)N2CCCCC2)CC1	-15.8	-3.3	-11.0	-1.9	2454	nt	nt
Cc1oc(-c2ccccc2F)nc1CSCC(=O)NCc1ccc2c(c1)OCO2	-15.3	-6.2	-6.7	-5.7	20539*	-2.6	-0.2
Cc1ccc(S(=O)(=O)N2CCCC2C(=O)N2CCCCCC2)cc1 (configuration not stated)	-3.9	8.5	15.1	3.3	3117	4.5	6.3
CC(C)N(C(=O)Cn1cc(S(=O)(=O)CC(=O)N2CCOCC2)c2ccccc21)C(C)C	-1.5	0.0	5.4	8.2	4423	14.9	9.7
O=C1NC2=C(CCc3ccccc32)C(c2ccccc2)N1 (configuration not stated)	-23.4	8.2	6.9	9.8	10257	3.3	2.4
COc1ccc(COC(=O)c2c(C)nn(-c3ccccc3)c2Cl)cc1	-17.1	-10.3	6.8	28.7	4911	6.2	-4.4
OC(CNCCc1ccc(Cl)cc1)COc1cc(Cl)ccc1Cl (configuration not stated)	-5.4	-5.0	0.3	-19.4	3977	1.0	0.4
CCCCn1c(N)c(NCC)c(=O)[nH]c1=O	-11.2	0.6	nt	3.4	2576	5.1	6.0
CSC(=NCCCN1CCOCC1)NS(=O)(=O)c1cccs1	-14.3&-9.2	-2.3&-10.3	-2.0	-3.5&5.2	3809&3168	-17.0&-2.8	-0.3&-0.4
O=C1C=CC(=O)N1c1ccccc1N1C(=O)C=CC1=O	-18.3	1.4	nt	-2.1	3545	-3.3	0.6
COc1ccc(N2CCN(C(=O)c3cc(=O)c4cc(C)cc(C)c4o3)CC2)cc1	-18.8	2.6	-6.6	10.5	3508	-1.8	8.0
CCCn1c(SCC(=O)NC2CCCC2)nc2c1c(=O)n(C)c(=O)n2C	9.3	0.6	5.9	3.6	3959	9.0	7.9
COc1cccc(Nc2nc3ccccc3nc2NS(=O)(=O)c2ccc(NC(C)=O)cc2)c1	-4.3	10.2	0.6	-8.4	5851	-4.0	5.4
COc1ccccc1CCNC(=O)C1CCC(=O)N(Cc2cccc(F)c2)C1 (configuration not stated)	-24.5	3.7	-6.4	2.9	6129	-14.8	-7.4
COc1cc(Cl)c(C)cc1NC(=O)COC(=O)C(NS(=O)(=O)c1ccc(Cl)cc1)C(C)O (configuration not stated)	-22.0	5.6	-7.6	-0.4	10174	11.8	14.7
NC(=O)C1=C[C@@H](C2CCCCC2)C[C@@H](OCc2ccc(CO)cc2)O1	-39.6	nt	-0.3	nt	4090	nt	nt
COc1ccc(CCNC(=O)CN(c2ccccc2)S(C)(=O)=O)cc1OC	-10.1	0.9	-9.0	4.1	3125	23.3	2.7
CN(C)c1nc(SCC#N)nc(N2CCOCC2)n1	-16.0	4.9	-4.4	-0.6	2944	-0.4	5.3
CN(CC(=O)Nc1ccccc1Oc1ccccc1)Cc1ccccc1F	-8.1	2.7	5.8	-10.0	2090	20.4	5.3
O=C(Nc1cc(Cl)ccc1N1CCCC1)C1=NN(c2ccccc2)C(=O)CC1	-7.9	-1.1	6.0	1.7	5724	-7.8	-3.2
O=C(O)CCn1c(=O)c2ccccc2c2ccccc2c1=O	-1.5	-7.5	6.5	-3.1	2891	10.8	-28.1
O/N=C(/c1ccc(Cl)cc1)C1CC1c1ccccc1 (configuration not stated)	-24.4	nt	-3.8	nt	3738	nt	nt
CC(=NNC(=O)Cc1ccccc1)c1ccc(Br)s1	nt	3.8	nt	1.8	nt	10.2	2.0
CC(=O)C[C@H](O)CC(=O)[C@@H]1OC(=O)CCCCCc2ccccc21	89.6*	5.3	nt	6.9	3880	-8.4	4.3
COc1cccc(CSc2ccc(S(=O)(=O)N3CCOCC3)cc2C(=O)NCC2CCCO2)c1OC (configuration not stated)	-14.8	7.6	7.4	22.3	4213	4.1	0.2
CCOc1cccc(CN2CCC(CCC(=O)NC3CC3)CC2)c1O	-8.1	3.3	-10.2	6.5	4457	-2.8	-4.5
O=C(N/N=C1\C(=O)c2cccc3cccc1c23)c1ccc(O)cc1	-43.9	-18.9	-5.9	1.4	4427	-5.3	8.0
CCCCCC(=O)N/N=C/c1ccc([N+](=O)[O-])o1	4.3	nt	-4.5	nt	11404	nt	nt
Cc1ccc(C2CC(c3cccs3)=NN2S(=O)(=O)c2ccc(C)cc2)cc1 (configuration not stated)	-5.1	3.9	-2.7	3.9	11132	3.4	6.1
O=C(CSc1ccc(-c2ccccn2)nn1)c1ccccc1	-41.5	7.2	0.3	6.1	4603	10.1	14.5
CCCC12CN3CCN(CC(C3)/C1=N\NC(=O)c1ccncc1)C2	-12.0	nt	-2.2	nt	4561	nt	nt
C[C@H](CO)N1C[C@H](C)[C@@H](CN(C)S(=O)(=O)c2cccs2)Oc2c(NS(=O)(=O)c3ccccc3)cccc2C1=O	-6.4	-3.2	nt	-7.6	3947	-1.9	9.9
COc1ccc(NC(=O)c2ccc(COCC(F)(F)C(F)F)cc2)cc1OC	-6.6	5.3	-10.8	4.1	2398	10.9	8.7

Complete entries as entered above. Order of values: PrP 5UTR inh	RN4220 kill	BJeLR viability	Sa ugtP lethal	Bead autofluor	Mtb hypoxia rep	Mtb hypoxia rep growth
Shown for O=C(O)CCn1c(=O)c2ccccc2c2ccccc2c1=O = -1.5	-7.5	6.5	-3.1	2891	10.8	-28.1
Shown for CCCn1c(SCC(=O)NC2CCCC2)nc2c1c(=O)n(C)c(=O)n2C = 9.3	0.6	5.9	3.6	3959	9.0	7.9

Later entries.
SMILES	PrP 5UTR inh	RN4220 kill	BJeLR viability	Sa ugtP lethal	Bead autofluor	Mtb hypoxia rep	Mtb hypoxia rep growth
CCS(=O)(=O)Nc1ccc(Cc2ccc(NS(=O)(=O)CC)cc2)cc1	nt	2.6	4.9	6.3	9547	2.3	-3.1
C1CC2CN(c3nc4nonc4nc3N3CCSCC3)CCN2C1 (configuration not stated)	-26.8	1.8	-1.3	1.6	4045	6.2	-11.3
CC1CCCN(S(=O)(=O)c2ccc(NC(=O)C3CCN(C(=O)c4ccco4)CC3)cc2)C1 (configuration not stated)	-32.1	0.9	-2.7	1.7	3816	2.4	8.6
COc1cc2c(cc1OC)C(SC)=NC(C)(C)C2	-31.6	1.8	2.2	2.9	5885	18.9	11.5
CC[C@@H](C)C(NC(=O)OC(C)(C)C)c1cn([C@@H](CCC(=O)OC(C)(C)C)C(=O)N2CCN(C(=O)OC(C)(C)C)CC2)nn1 (some centres not stated)	-15.1	nt	-12.0	nt	3466	nt	nt
CC(=NNc1cc(C)nc(NCc2ccccc2)n1)c1cccc([N+](=O)[O-])c1	nt	-0.4	nt	-8.0	nt	-10.9	-10.7
CC(C)CC1NC(=O)N(CC(=O)N2CCN(S(=O)(=O)c3ccc(Cl)cc3)CC2)C1=O (configuration not stated)	-2.2	2.6	0.3	-1.0	4768	nt	nt
COc1ccc(C(=O)OCC(=O)NC(C)CCc2ccccc2)cc1 (configuration not stated)	nt	3.6	3.4	5.4	3441	14.9	-3.5
Cc1ccc(C(=O)N2CCCC(N(C)Cc3ccccc3)C2)s1 (configuration not stated)	-6.0	-1.1	6.6	-3.1	?	-9.9	4.4
CCOC(=O)n1c(=O)oc2ccc(Cl)cc21	-14.3	6.5	8.9	11.1	3025	1.5	-3.6
Nc1ccccc1SC1CC(=O)N(c2ccc(Cl)c(Cl)c2)C1=O (configuration not stated)	-22.1	-3.3	-2.6	-24.2	3937	1.6	0.2
Cc1cccc(NS(=O)(=O)c2cccc(C(=O)Nc3cccc(C(=O)O)c3)c2)c1	2.8	1.5	-4.2	2.2	4128	0.7	-4.5
CC(=O)Nc1ccc(NC(=O)CSCc2cnn(-c3ccccc3)c2-n2cccc2)cc1	-5.1	0.6	-5.1	-9.5	21828*	-2.8	13.2
Nc1nnnn1/N=C/c1ccccc1OCc1ccc(Cl)cc1	-1.7	nt	0.6	nt	4439	nt	nt
Cc1nc2c(cnn2-c2ccccc2Cl)c(=O)n1-c1ccc(N2CCC(C)CC2)cc1	-17.6	12.0	5.7	-2.3	3368	14.4	26.0
Cc1cc(Nc2ccc(F)cc2)nc(N)n1	-12.1	6.4	-5.8	1.9	23182*	1.7	-2.2
CC(=O)NCC1CCCN(C(=O)c2oc3c(F)cccc3c2C)C1 (configuration not stated)	-33.5	0.6	0.9	1.2	6160	3.6	-12.5
CCN(CC)P(=O)(NC(=O)c1cccn1C)N(CC)CC	2.7	0.6	7.6	1.0	3293	-5.4	8.5
COc1ccc(NCC(=O)NN=C2CCS(=O)(=O)c3ccc(F)cc32)cc1	nt	-2.9	nt	-3.6	3691	-7.7	11.2
CCCCNC(=O)N(O)C1N(N=Cc2ccc(N(C)C)cc2)C(=S)SC1(C)C (configuration not stated)	nt	4.1	nt	2.8	nt	10.7	9.9
COc1ccc([N+](=O)[O-])cc1N(CC(O)CN1CCCCC1)S(=O)(=O)c1ccccc1 (configuration not stated)	4.1	3.7	nt	4.2	2035	7.8	2.5
COc1cccc(C(=O)Nc2ccc(NC(=O)C3C4C=CC(C4)C3C(=O)O)cc2)c1 (configuration not stated)	1.8	1.4	-13.9	-7.6	4867	1.5	1.5
CCc1c(C)sc(NC(=O)c2ccccc2[N+](=O)[O-])c1C(N)=O	-23.6	7.0	4.9	8.8	2628	-5.0	0.6
Cc1nnc2ccc(-c3ccc(NS(=O)(=O)c4ccccc4[N+](=O)[O-])cc3)nn12	-21.6	4.8	nt	-4.9	5810	4.5	3.9
Cn1nnc(C(O)CN2CCOCC2)n1 (configuration not stated)	-19.8	-5.8	-0.1	6.0	2514	9.5	8.9
O=C(C1=C(O)C(=O)N(CCN2CCOCC2)C1c1cccc(F)c1)c1cc2ccccc2o1 (configuration not stated)	-14.6	3.6	-7.0	-4.3	4180	-7.3	-0.8
CC(CCC12CC3CC(CC(C3)C1)C2)=NNC(N)=S	nt	6.5	nt	2.2	nt	nt	nt
Brc1ccccc1-c1csnn1	1.7	9.4	-2.5	9.0	9386	-2.3	-0.3
Cc1ccc(C)c(C(=O)CCC(=O)Nc2cccnc2)c1	-25.5	4.0	-7.6	-1.0	9943	1.2	-6.1
O=C(OCC(=O)N1CCN(c2ccccc2)CC1)c1ccc(O)cc1O	-5.4	2.9	3.2	2.6	5890	1.2	2.0
COc1cc(OC)c(C(=O)NC2CCCCCC2)cc1OC	3.5	2.8	-3.9	-2.1	2980	nt	nt

5 structures from above, ordered by molar mass, lowest first.
SMILES	PrP 5UTR inh	RN4220 kill	BJeLR viability	Sa ugtP lethal	Bead autofluor	Mtb hypoxia rep	Mtb hypoxia rep growth
CC(CCC12CC3CC(CC(C3)C1)C2)=NNC(N)=S	nt	6.5	nt	2.2	nt	nt	nt
Cc1ccc(C)c(C(=O)CCC(=O)Nc2cccnc2)c1	-25.5	4.0	-7.6	-1.0	9943	1.2	-6.1
COc1cc(OC)c(C(=O)NC2CCCCCC2)cc1OC	3.5	2.8	-3.9	-2.1	2980	nt	nt
Cc1nnc2ccc(-c3ccc(NS(=O)(=O)c4ccccc4[N+](=O)[O-])cc3)nn12	-21.6	4.8	nt	-4.9	5810	4.5	3.9
O=C(C1=C(O)C(=O)N(CCN2CCOCC2)C1c1cccc(F)c1)c1cc2ccccc2o1 (configuration not stated)	-14.6	3.6	-7.0	-4.3	4180	-7.3	-0.8
